Assay outcomes deposited in PubChem BioAssay by several laboratories.
HSV augment: enhancers of HSV replication in host cells, fold increase, host cell viability; HSV replication augmentation in cells; maximum fold increase; actives 0.005% (n = 220,000);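 active = peak rise of 1.5-fold or more in the series; tested in PC3 cells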;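 also: first round at 10 µM; read as green reporter fluorescence; hits show the peak of a series up to 25 µM; 1 = signal of infected wells without compound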
PKD1 kinase inh: inhibitors of human PKD1 kinase, biochemical, fluorescence polarization; Serine/threonine-protein kinase D1 (Homo sapiens), Q15139; PKD1 kinase fluorescence polarization assay; inhibition, %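 (about 10 µM by stock and volumes)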; actives 0.056% (n = 200,000); AID 797, 2007;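 active = inhibition of 50% or more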;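 also: controls were vehicle for no effect and a reference inhibitor for full effect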
INS promoter inh: inhibitors of insulin promoter-driven GFP, primary screen, imaging, TRM-6 cells (human fetal islet line), eGFP reporter, cell count; actives 0.9% (n = 130,000); inhibition, % at 2 µM; reporter expression induced with tamoxifen;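 active = inhibition above the mean plus 3 SD, with well images judged a real hit on visual review, cut at about 60% in these data, passing the limit was not always enough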
RGS16-Gao HTS: modulators of RGS16 binding to Galphao, primary screen, biochemical, human proteins, multiplexed bead flow cytometry. Regulator of G-protein signaling 16 (Homo sapiens) + Guanine nucleotide-binding protein …. bead-based flow cytometry RGS16-Galphao binding, fluorescence; actives lie on both sides. binding response (% of control), % at 10 µM. actives 0.38% (n = 220,000);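 active = below 25% or above 175%, edge rows of some plates excepted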;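 also: Galphao activated by GDP with aluminum fluoride before binding; 100% = wells without compound and 0% = beads without RGS; some results beyond the cut were filed as inactive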
Target sequence (O15492 whole entry, looked up): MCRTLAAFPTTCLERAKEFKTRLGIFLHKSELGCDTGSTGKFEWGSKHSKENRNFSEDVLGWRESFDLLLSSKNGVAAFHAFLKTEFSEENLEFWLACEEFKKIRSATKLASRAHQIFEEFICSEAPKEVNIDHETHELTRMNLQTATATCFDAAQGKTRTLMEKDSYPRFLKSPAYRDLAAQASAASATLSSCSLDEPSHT
Target sequence (P09471 whole entry, looked up): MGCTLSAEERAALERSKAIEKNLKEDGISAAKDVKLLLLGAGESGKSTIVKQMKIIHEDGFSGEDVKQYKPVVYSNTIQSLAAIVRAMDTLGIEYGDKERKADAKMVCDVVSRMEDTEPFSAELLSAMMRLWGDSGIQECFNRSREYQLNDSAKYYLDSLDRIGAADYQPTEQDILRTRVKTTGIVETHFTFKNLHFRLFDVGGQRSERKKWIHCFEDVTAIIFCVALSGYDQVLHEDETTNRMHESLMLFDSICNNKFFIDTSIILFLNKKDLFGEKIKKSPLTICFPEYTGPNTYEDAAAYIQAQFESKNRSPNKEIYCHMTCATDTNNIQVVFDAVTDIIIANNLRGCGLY
GALR2 ag: GALR2 receptor agonists, primary screen, cell-based. Galanin receptor type 2 (Homo sapiens), O43603. GALR2-expressing cells, agonist activation read-out. activation, %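 (tested at 5 µM)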. actives 0.48% (n = 140,000);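 active = above mean plus 3 SD of all compounds, about 5% in these data, not always enough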;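 also: 0% = vehicle buffer wells and 100% = reference agonist at full effect; tested in CHO reporter cells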
Target sequence (O43603 whole entry, looked up): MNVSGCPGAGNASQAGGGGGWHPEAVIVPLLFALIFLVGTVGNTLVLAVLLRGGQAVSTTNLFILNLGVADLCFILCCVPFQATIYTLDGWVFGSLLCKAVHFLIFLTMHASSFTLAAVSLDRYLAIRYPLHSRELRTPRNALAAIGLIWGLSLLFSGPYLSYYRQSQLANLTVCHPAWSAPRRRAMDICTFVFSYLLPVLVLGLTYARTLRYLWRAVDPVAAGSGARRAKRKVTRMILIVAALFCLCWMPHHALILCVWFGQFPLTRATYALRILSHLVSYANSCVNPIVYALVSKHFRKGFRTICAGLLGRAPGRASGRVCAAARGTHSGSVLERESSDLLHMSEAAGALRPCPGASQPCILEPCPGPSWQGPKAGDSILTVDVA
INS promoter inh cell count: also measured in INS promoter inh; calls as there; normalized cell count, %; measured here: cell count, toxicity; reference of the scale not given here;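 cells exposed to compound for 48 h; stained nuclei by imaging scaled within each plate; lower means fewer cells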
HSV augment primary fold: further read-out of HSV augment, marked with its call; fold increase; compound at 10 µM; measured here: primary screen fold increase 10 uM; tested in PC3 cells;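 GFP signal in the first replicate; 1 = infected wells without compound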
Active calls of the source: *; i = inactive; . = no result given. Compounds as they come, and some 1.1% of all compounds hit somewhere here.

Short keys – A = HSV augment; B = HSV augment primary fold; C = PKD1 kinase inh; D = INS promoter inh; E = INS promoter inh cell count; F = RGS16-Gao HTS; G = GALR2 ag
COc1cc(Nc2nc3ccccc3n3nnnc23)cc(OC)c1OC
  A = i; B = 1.1; C = -7; D = .; E = .; F = 103; G = -3.3
O=C(O)CC(CC(=O)Nc1ccc(N2CCOCC2)cc1)c1ccccc1 (centres undefined)
  A = i; B = 1; C = .; D = .; E = .; F = 95; G = .
Cc1ccc(S(=O)(=O)NCc2ccc(C(=O)N3CCN(Cc4ccccc4)CC3)cc2)cc1
  A = i; B = 0.73; C = -5; D = -4; E = 84; F = 102; G = -0.3
CC1CCCN(C(=O)c2ccc(CNc3c(N4CCCCC4)c(=O)c3=O)cc2)C1 (centres undefined)
  A = i; B = 0.86; C = -4; D = .; E = .; F = 103; G = -3.0
O=C(Nc1nc2c(s1)CCCC2)C1COc2ccccc2O1 (centres undefined)
  A = i; B = 0.76; C = -7; D = .; E = .; F = 104; G = -2.1
CC(C)NC(=O)CNc1ccc(C(F)(F)F)cc1[N+](=O)[O-]
  A = i; B = 1; C = 4; D = .; E = .; F = 95; G = .
CCOC(=O)Cc1csc(N/C(=N/S(=O)(=O)c2cc(Br)ccc2OCC)c2ccccc2)n1
  A = i; B = 0.94; C = -5; D = -41; E = 112; F = 99; G = -0.6
O=C(O)c1oc2ccc(Br)cc2c1-n1cccc1
  A = i; B = 0.76; C = 2; D = -40; E = 104; F = .; G = -1.0
O=C(Nc1ccc2oc(-c3cccc(F)c3)nc2c1)c1ccccc1F
  A = i; B = 0.72; C = 6; D = .; E = .; F = 106; G = 0.9
O=C(O)C1CC=CCC1C(=O)Nc1cccc(C(=O)N2CCCCC2)c1 (centres undefined)
  A = i; B = 0.78; C = -7; D = -388; E = 26; F = 104; G = 0.2
CCOC(=O)C(NC(=O)N(C)C)(Nc1sc(C)c(CC)c1C#N)C(F)(F)F (centres undefined)
  A = i; B = 1.1; C = -10; D = 12; E = 105; F = 108; G = -1.1
Cc1sc2nc(SCC(N)=O)n(-c3ccccc3)c(=O)c2c1C
  A = i; B = 0.81; C = 6; D = 63; E = 90; F = 93; G = .
Cc1c(Cl)c([N+](=O)[O-])nn1CC(=O)NCC(C)C
  A = i; B = 1; C = -5; D = .; E = .; F = 98; G = .
COC(=O)c1ccccc1NC(=O)Nc1ccc(Cl)cn1
  A = i; B = 0.9; C = -2; D = .; E = .; F = 95; G = .
CCCn1c(=O)c2ccccc2n2c(SCc3nnc(-c4ccccc4Br)o3)nnc12
  A = i; B = 0.8; C = 0; D = -71; E = 107; F = 101; G = -2.7
COC(=O)c1sc2ncn(CC(=O)NCCc3ccc(OC)c(OC)c3)c(=O)c2c1C
  A = i; B = 0.9; C = -4; D = .; E = .; F = 95; G = .
CCOC(=O)c1ccc(Nc2nc(C)cc(C)c2C#N)cc1
  A = i; B = 0.95; C = -5; D = 21; E = 115; F = 96; G = -1.3
Cc1ccc(-c2ccc(CCC(=O)O)n2NC(N)=S)cc1
  A = i; B = 1; C = 0; D = .; E = .; F = 79; G = -2.6
Cc1ccc(NC(=O)CCC(=O)NNS(=O)(=O)c2ccccc2)cc1C
  A = i; B = 0.93; C = -9; D = 3; E = 93; F = 103; G = -0.8
CCCOc1ccc(/C(O)=C2\C(=O)C(=O)N(CCCOC)C23C(=O)N(C)c2ccccc23)cc1 (centres undefined)
  A = i; B = 1; C = 12; D = .; E = .; F = 91; G = -0.4
CCOC(=O)c1[nH]c2c(c1-c1ccccc1)C(=O)CC(c1ccc(OCC)cc1)C2 (centres undefined)
  A = .; B = .; C = 10; D = -17; E = 132; F = 68; G = 0.3
CN(CCO)Cc1csc2ccc(Br)cc12
  A = i; B = 0.9; C = -7; D = 43; E = 153; F = 101; G = -4.4
Cc1cccc(C)c1NC(=O)NC1(C(=O)NCCCN2CCOCC2)CCCCC1
  A = i; B = 0.9; C = -5; D = -31; E = 136; F = 108; G = -2.1
COc1ccc(C(=O)O)c(OC)n1
  A = i; B = 0.98; C = .; D = .; E = .; F = 97; G = .
COc1ccc(S(=O)(=O)N2CCOCC2)cc1NC(=O)Cc1ccc(Cl)c(Cl)c1
  A = i; B = 1; C = -4; D = -2; E = 97; F = 104; G = -0.7
COc1ccc(C)cc1S(=O)(=O)N(CC(=O)N1CCCC1)c1ccccc1
  A = i; B = 1.1; C = -11; D = -40; E = 84; F = 98; G = -2.6
O=C(NC1CSC/C1=N\O)c1ccccc1 (centres undefined)
  A = i; B = 0.65; C = -1; D = .; E = .; F = 100; G = 0.0
CCOC(=O)c1c(-c2cccs2)csc1NC(=O)CSc1ncn[nH]1
  A = i; B = 0.96; C = -4; D = 47; E = 141; F = 87; G = -2.1
CCCCCCCC(=O)NN=C1CCN(Cc2ccccc2)CC1
  A = i; B = 0.97; C = -13; D = -19; E = 99; F = 102; G = 0.3
Cc1cc(C(=O)OCC(=O)NCCc2ccccc2)c(C)o1
  A = i; B = 0.98; C = -3; D = 30; E = 128; F = 101; G = -2.9
O=C(c1cc(-c2ccc3c(c2)OCO3)on1)N1CCOCC1
  A = i; B = 0.94; C = -14; D = 19; E = 70; F = 100; G = -0.3
CC(=O)c1c(O)cc(=O)n(-c2ccccc2)c1-c1cccc2ccccc12
  A = i; B = 1.1; C = 0; D = 7; E = 118; F = 102; G = -2.8
CC(=O)Nc1ccc(S(=O)(=O)NC2(C(F)(F)F)NC(=O)N(C3CCCCC3)C2=O)cc1 (centres undefined)
  A = i; B = 0.97; C = -5; D = 12; E = 111; F = 103; G = -2.0
Cc1c(Cl)cccc1-c1ccc(C(=O)N2CCN(c3ccc([N+](=O)[O-])cc3)CC2)o1
  A = i; B = 0.94; C = -8; D = 35; E = 131; F = 111; G = -0.9
CC(=O)OC(C(=O)NC1CCCCC1)c1ccc(C)cc1 (centres undefined)
  A = i; B = 0.98; C = 0; D = -46; E = 61; F = 97; G = 0.1
COc1ccc(C(c2nnnn2Cc2ccccc2)N2CCN(c3nc4ccccc4s3)CC2)cc1OC (centres undefined)
  A = i; B = 1; C = -9; D = 26; E = 121; F = 102; G = -0.6
CC(CC(=O)Nc1cccc(Cl)c1)c1ccccc1 (centres undefined)
  A = i; B = 0.95; C = 3; D = 29; E = 105; F = 112; G = -1.3
COc1ccccc1-n1cnc2c(c1=O)c1nc3ccccc3nc1n2-c1ccc(C)cc1
  A = i; B = 0.81; C = 2; D = -13; E = 100; F = 102; G = 0.8
CC1CCOC2(O1)C(=O)N(CN1CCN(c3cccc(Cl)c3)CC1)c1ccccc12 (centres undefined)
  A = i; B = 0.96; C = -2; D = 8; E = 64; F = 109; G = 0.0
S=c1nc(-c2ccccc2)n(CCN2CCOCC2)c2c1CCCC2
  A = i; B = 1.1; C = -6; D = .; E = .; F = 99; G = -1.3
CN1CCN(C(=O)c2ccccc2NC(=O)c2cccs2)CC1
  A = i; B = 1.1; C = -5; D = -13; E = 123; F = 101; G = -1.9
CSC(=NC#N)N1CCN(c2c(C)cccc2C)CC1
  A = i; B = 1; C = -2; D = .; E = .; F = 98; G = .
Cc1ccc(-n2c(CSc3nc(C)cc(C)n3)nnc2SCC(=O)NCc2ccco2)cc1
  A = i; B = 0.89; C = -8; D = 16; E = 95; F = 96; G = -1.5
COc1cc(C(=O)O)ccc1O
  A = i; B = 0.9; C = 1; D = 14; E = 86; F = 103; G = -1.5
CC(C)CNS(=O)(=O)c1ccc(CCC(=O)O)cc1
  A = i; B = 1; C = -4; D = -412; E = 63; F = 100; G = -1.6

Going on with the list.
Every second line gives: HSV augment	HSV augment primary fold	PKD1 kinase inh	INS promoter inh	INS promoter inh cell count	RGS16-Gao HTS	GALR2 ag
O=C(c1ncc[nH]1)c1ccco1
→ i	0.95	0	43	147	98	-2.7
O=S(=O)(c1cccc2cccnc12)N1CCN(Cc2ccccc2)CC1
→ i	1	-7	.	.	99	.
Cc1nn(C)cc1CN(C)S(=O)(=O)c1cccc([N+](=O)[O-])c1
→ i	1.1	6	.	.	102	.
Cc1ccc(CC(=O)N/N=C/c2ccc3c(c2)OCO3)cc1
→ i	1	-3	.	.	102	.
O=C(Cc1ccc(Cl)cc1)N/N=C/c1c(Cl)cccc1Cl
→ i	0.82	-8	0	114	25	2.0
Cc1cc2nc(C)n(CCCNC(=O)Nc3ccc(F)cc3)c2cc1C
→ i	1	0	-20	103	109	-1.9
COc1cccc(N2CCN(c3ccc(S(=O)(=O)N4CCCC4)cc3)CC2)c1
→ i	1.1	-12	.	.	108	0.0
Cc1ccccc1NC(=O)C(=O)NCCc1ccccc1
→ i	0.97	-7	30	98	99	-1.3
Cn1cc(Br)c(C(=O)NNC(=O)c2ccccc2)n1
→ i	1.1	12	0	106	100	-1.2
O=C(Nc1ccc(N2C(=O)c3cccc4cccc(c34)C2=O)cc1)c1ccc(N2CCCCC2)c([N+](=O)[O-])c1
→ i	0.85	-1	19	138	100	0.0
O=C(/C=C/c1cccc([N+](=O)[O-])c1)NCCN1C(=O)S/C(=C\c2ccc(F)cc2)C1=O
→ i	1	-10	38	100	59	-0.7
O=C1CN(C(=O)COC(=O)CNC(=O)c2ccc(Cl)cc2)c2ccccc2N1
→ i	0.99	0	.	.	67	.
O=C(NC(=S)Nc1ccc(-c2nc3ncccc3o2)cc1)c1ccccc1F
→ i	0.91	2	.	.	93	.
CCOCCn1c(N2CCN(c3ccccc3)CC2)nc2c1c(=O)n(C)c(=O)n2C
→ i	0.99	-9	.	.	102	-2.3
COc1cccc(-c2cc(C(F)(F)F)nc(-n3ccc([N+](=O)[O-])n3)n2)c1
→ i	0.75	-7	.	.	103	.
CCOC(=O)C1=C(C)N(C)C(=S)NC1c1cccc(Cl)c1Cl (centres undefined)
→ i	1	0	.	.	104	.
COCCNC(=S)N/N=C(\C)c1cccc([N+](=O)[O-])c1
→ i	0.92	-2	0	104	110	-0.3
CC(C1CC2CCC1C2)n1c(-c2cccs2)n[nH]c1=S (centres undefined)
→ i	1	.	.	.	96	.
COc1ccc(C(=O)Nc2c(Cl)cc(Cl)cc2C(=O)NCc2ccco2)cc1
→ i	0.83	-2	44	120	104	-3.2
COc1ccccc1OCCNC(=O)c1cc(F)c(F)cc1Cl
→ i	0.9	-12	12	164	100	-2.1
CCOC(=O)NC(N(O)c1cccc(Cl)c1)C(Cl)(Cl)Cl (centres undefined)
→ i	1.2	.	.	.	101	.
CC(C)COC(=O)Nc1nnc(SCc2ccccc2F)s1
→ i	0.84	4	.	.	92	-1.4
O=[N+]([O-])c1ccc(Nc2c3ccccc3nc3ccccc23)cc1
→ i	0.82	67*	40	64	99	.
CCCCn1c(=O)[nH]c2ccccc21
→ i	0.84	-1	.	.	101	-3.9
Cc1cc2c(cc(C(=O)OC(C(=O)NCC3CCCO3)C(C)C)n2C)o1 (centres undefined)
→ i	1	-9	-129	81	99	.

13 consecutive records already listed:
Every second line gives: HSV augment	HSV augment primary fold	PKD1 kinase inh	INS promoter inh	INS promoter inh cell count	RGS16-Gao HTS	GALR2 ag
O=C(NC(=S)Nc1ccc(-c2nc3ncccc3o2)cc1)c1ccccc1F
→ i	0.91	2	.	.	93	.
CCOCCn1c(N2CCN(c3ccccc3)CC2)nc2c1c(=O)n(C)c(=O)n2C
→ i	0.99	-9	.	.	102	-2.3
COc1cccc(-c2cc(C(F)(F)F)nc(-n3ccc([N+](=O)[O-])n3)n2)c1
→ i	0.75	-7	.	.	103	.
CCOC(=O)C1=C(C)N(C)C(=S)NC1c1cccc(Cl)c1Cl (centres undefined)
→ i	1	0	.	.	104	.
COCCNC(=S)N/N=C(\C)c1cccc([N+](=O)[O-])c1
→ i	0.92	-2	0	104	110	-0.3
CC(C1CC2CCC1C2)n1c(-c2cccs2)n[nH]c1=S (centres undefined)
→ i	1	.	.	.	96	.
COc1ccc(C(=O)Nc2c(Cl)cc(Cl)cc2C(=O)NCc2ccco2)cc1
→ i	0.83	-2	44	120	104	-3.2
COc1ccccc1OCCNC(=O)c1cc(F)c(F)cc1Cl
→ i	0.9	-12	12	164	100	-2.1
CCOC(=O)NC(N(O)c1cccc(Cl)c1)C(Cl)(Cl)Cl (centres undefined)
→ i	1.2	.	.	.	101	.
CC(C)COC(=O)Nc1nnc(SCc2ccccc2F)s1
→ i	0.84	4	.	.	92	-1.4
O=[N+]([O-])c1ccc(Nc2c3ccccc3nc3ccccc23)cc1
→ i	0.82	67*	40	64	99	.
CCCCn1c(=O)[nH]c2ccccc21
→ i	0.84	-1	.	.	101	-3.9
Cc1cc2c(cc(C(=O)OC(C(=O)NCC3CCCO3)C(C)C)n2C)o1 (centres undefined)
→ i	1	-9	-129	81	99	.
